2A StopGo: FMDV 2A StopGo reporter, luciferase signal; human cells with a luciferase reporter of 2A StopGo recoding; control for the full effect not named in the record; hit rate 1.2% among 410,000; Potency, µM (titrated, usually from 57.9 µM), without a hit: at the highest dose signal change, negative = less light; AID 1159524; active = well fitted falling curve with a large enough effect; inconclusive = small, poorly fitted or top-dose-only effect; inactive = no such curve, though single readings can be large or run the other way; tested in HEK293T cells; note: % is set by controls: 0 for no effect and ±100 for the full control effect; nearly all actives have a fitted effect of over 45% in size; luciferase light after 4 h
NS1 function inh: blocks influenza NS1 protein function | S. cerevisiae slowed by influenza A NS1, growth recovery by OD600 | Potency, µM (top dose mostly 46.1 µM), for inactives: at the highest dose activity, positive = more growth | hit rate 0.4% among 270,000 | AID 2326; note: actives are rising curves; nearly all actives have a fitted effect of over 50% in size
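Compounds were scored for reversing the slow growth caused by influenza A NS1 in S. cerevisiae, measured by optical density at 600 nm. Assay medium contained 2% galactose at pH 6.0; NS1-free yeast of the same strain were the positive control.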
RE007 growth inh: less growth of the S. pombe RE007 Vpr strain. S. pombe RE007 Vpr strain, BacTiter-Glo ATP luminescence, 24 h; control for the full effect not named in the record. Potency, µM (series often up to 92.2 µM), for inactives: at the highest dose activity change, negative = less growth. hit rate 0.21% among 360,000. AID 651644; active = well fitted falling curve with a large enough effect; inconclusive = small, poorly fitted or top-dose-only effect; inactive = no such curve, though single readings can be large or run the other way;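 note: % is set by controls: 0 for no effect and ±100 for the full control effect; nearly all actives have a fitted effect of over 50% in size; the assay follows cell death caused by Vpr and the record does not say whether a fall means rescue or toxicity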
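Fission yeast RE007 carrying one integrated HIV-1 vpr copy, seeded at OD 0.01 in PMG+AL medium with 23 nL pinned compound. Grown 24 h at 30 degrees; viability read by BacTiter-Glo luminescence after 5 min.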
MARV entry inh: inhibitors of Marburg virus binding or cell entry; Marburg virus pseudotyped entry inhibition, cell reporter; control for the full effect not named in the record; about a third of the inactives were read at about 46 µM; hit rate 1.8% among 300,000; Potency, µM (top dose mostly 37.8 µM), for inactives: at the highest dose activity change, negative = inhibition, actives largely listed as inhibitors; active = well fitted inhibition curve with a large enough effect; inconclusive = small, poorly fitted or top-dose-only effect, or effect the other way; inactive = flat fitted curve, though single readings scatter; tested in HEK293 cells; about a fifth of its hits are not listed in these tables; note: % is set by controls: 0 for no effect and ±100 for the full control effect; luciferase read-out
Cruzain noTriton: inhibitors of Trypanosoma cruzi cruzain without detergent; purified cruzain, Z-FR-AMC fluorescence, no detergent; Potency, µM, for inactives: max response, negative = inhibition, usual class: inhibitors; hit rate 2.3% among 200,000; AID 1476; active = well fitted curve in the direction sought with a large enough effect; inconclusive = small, poorly fitted or top-dose-only effect, or another doubt; inactive = no such curve, though single readings can be large; an effect the other way counts as inactive or inconclusive;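 note: plate controls were enzyme without inhibitor for no effect and buffer without enzyme for full effect; nearly all actives have a fitted effect of over 40% in size; top concentration of the series not given in the record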
Target sequence (P25779 123-467 limits assumed): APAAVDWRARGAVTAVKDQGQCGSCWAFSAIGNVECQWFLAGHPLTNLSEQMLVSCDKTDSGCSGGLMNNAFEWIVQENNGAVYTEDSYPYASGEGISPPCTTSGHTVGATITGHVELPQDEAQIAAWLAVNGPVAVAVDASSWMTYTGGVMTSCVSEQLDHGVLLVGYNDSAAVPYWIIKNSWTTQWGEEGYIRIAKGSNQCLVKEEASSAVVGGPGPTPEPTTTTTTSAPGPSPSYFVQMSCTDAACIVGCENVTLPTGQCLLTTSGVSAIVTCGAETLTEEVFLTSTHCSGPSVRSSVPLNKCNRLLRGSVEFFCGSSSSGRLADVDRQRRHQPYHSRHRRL
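Detergent-free condition (0.00005% Triton X-100) in acetate buffer pH 5.5 with DTT. 1.5 nM enzyme and compound were pre-mixed 15 min, then 2 uM Z-FR-AMC substrate added; reaction progress from fluorescence change between first and third reads (60 s).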
SARS PLpro yeast: inhibitors of SARS-CoV papain-like protease in yeast | S. cerevisiae expressing SARS-CoV PLpro, growth rescue; control for the full effect not named in the record | Potency, µM (doses to about 32.9 µM), without a hit: at the highest dose activity, positive = growth rescue | hit rate 0.19% among 330,000 | AID 485353; note: 0% is about no effect; nearly all actives have a fitted effect of over 55% in size; growth read by luminescence after 48 h
Cruzain Triton: inhibitors of Trypanosoma cruzi cruzain with detergent; P25779; purified cruzain, Z-FR-AMC fluorescence, 0.01% Triton; Potency, µM, for inactives: max response, negative = inhibition, actives largely listed as inhibitors; hit rate 0.43% among 200,000; active = well fitted curve in the direction sought with a large enough effect; inconclusive = small, poorly fitted or top-dose-only effect, or another doubt; inactive = no such curve, though single readings can be large; an effect the other way counts as inactive or inconclusive;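 note: plate controls were neutral wells for no effect and buffer without enzyme for full effect; nearly all actives have a fitted effect of over 40% in size; top concentration of the series not given in the record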
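Steps: dispense cruzain (1.5 nM final) in acetate buffer pH 5.5 with DTT and 0.01% Triton X-100; pin-transfer compounds; incubate 15 min RT; add Z-FR-AMC (2 uM final); read fluorescence every 30 s, using the 60 s intensity change.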
Lassa entry inh: inhibitors of Lassa virus binding or cell entry; hit rate 1.2% among 300,000; Potency, µM (series often up to 37.9 µM), without a hit: top-dose activity change, negative = inhibition, most hits filed as inhibitors; Lassa virus pseudotype entry inhibition, cell reporter; control for the full effect not named in the record; active means well fitted inhibition curve with a large enough effect; inconclusive means small, poorly fitted or top-dose-only effect, or effect the other way; inactive means flat fitted curve, though single readings scatter; tested in HEK293 cells; note: % is set by controls: 0 for no effect and ±100 for the full control effect; nearly all actives have a fitted effect of over 50% in size; luciferase read-out
Starred values were filed as active, the others as inactive; ? = inconclusive; . = not tested or not shown; & = joins results of further samples; [ ] = remark or other dose. Unless noted, calls come from the whole dose curve; as a rule, active means well fitted rising curve with a large enough effect; inconclusive means small, poorly fitted or top-dose-only effect; inactive means no such curve, though single readings can be large or run the other way. Potency is the fitted concentration of half-maximal effect.

SMILES	2A StopGo	NS1 function inh	RE007 growth inh	MARV entry inh	Cruzain noTriton	SARS PLpro yeast	Cruzain Triton	Lassa entry inh
O=C(CC(c1ccccc1)c1cc(Br)ccc1O)N1CCCC1 (stereo unspecified)	35%	-8%	-1%	29%[46.1 µM]	.	0%	.	1%[46.1 µM]
O=c1c2c3c(sc2nnn1Cc1ccc(Br)cc1)CCCC3	-16%	.	.	-10%[46.1 µM]	-4%	.	-7.2%	-2%[46.1 µM]
O=C(NC(=S)NCCN1CCOCC1)c1ccccc1	-2%	6%	17%	.	3%	21%	2.0%	.
Cc1ccc2nc(CSc3nnc(NC(=O)c4cccc(Br)c4)s3)cc(=O)n2c1	3%	.	.	.	-10%	.	3.6%	?
CCOC(=O)[C@@H]1[C@H]2COc3ccccc3[C@@H]2N2C(=O)N(c3cccc(Cl)c3)C(=O)[C@@]12C	3%	-51%	1%	.	.	3%	.	.
CCc1noc(C)c1C(=O)Nc1ccc(C#N)cc1	-16%	.	15%	?	.	-7%	.	?
Cc1cccc(N2C(=O)CC(Sc3ccccc3C(=O)O)C2=O)c1 (stereo unspecified)	-21%	-40%	5.6µM*	?	-12%	-85%	0.3%	9%
Cc1ccc(C)c(NC(=O)CSc2nnc(CCNC(=O)OC(C)(C)C)o2)c1	?	10%	-2%	-2%	0%	12%	3.6%	4%
COc1ccc(OCC(=O)Nc2ccccc2N2CCCCC2)cc1	-8%	-42%	0%	?	.	-14%	.	?
CCOc1ccccc1N1CCN(C(=O)NCc2ccc(Cl)cc2)CC1	-26%	-55%	17%	?	.	-3%	.	.
COCc1ccc(C(=O)N2CCCC(Nc3ccc(C(C)C)cc3)C2)s1 (stereo unspecified)	?	-29%	6%	?	.	?	.	-26%
CCOc1ccc(NC(=O)c2ccccc2O)cc1	-37%	-50%	?	?	2%	-82%	-1.7%	?
c1ccc2c(-c3nn[nH]n3)cccc2c1	-3%	-6%	-7%	4%	-8%	-6%	-4.2%	15%
O=C(COC(=O)c1ccc(F)cc1F)Nc1ncccn1	11%	3%	18%	1%	.	0%	.	11%
Cc1ccc(C(=O)N/N=C2\SCC(=O)N2c2cc(C)ccc2C)cc1	-19%	?	15%	3%	-7%	-3%	-0.7%	4%
O=C(CN1CCC(c2nc3ccccc3[nH]2)CC1)Nc1ccc2c(c1)OCO2	-16%	-2%	4%	-22%	-15%	5%	-1.0%	1%
O=C(Cc1ccccc1)Nc1nnc(-c2cccs2)s1	77%[activator]	5%	15%	-29%	25µM*	5%	0.7%	-18%
COc1ccc(NC(=S)N/C(=N/S(=O)(=O)c2ccc(C)cc2)c2ccccc2)cc1	65%[activator]	-5%	-19%	.	.	5%	.	.
CC(C)(C)c1ccccc1O	-1%	.	0%	.	3%	3%	0.7%	.
O=C(NCc1ccc(F)cc1)C1(c2cccs2)CCOCC1	2%&-15%	9%	4%	17%&17%	2%&10%	11%	2.1%&0.9%	-9%[46.1 µM]
COc1ccccc1C1c2[nH]c3ccccc3c2CCN1Cc1cnc(C)s1 (stereo unspecified)	-28%	2%	-22%	-7%[46.1 µM]	.	-1%	.	?
COc1ccc(CC(NC(C)=O)C(=O)NC2CCN(C(=O)Nc3ccc(Cl)cc3)CC2)cc1OC (stereo unspecified)	5%	-10%	-14%	2%	9%	-17%	0.7%	21%
CC1CCC2(CC1)Nc1ccccc1C(=O)N2c1ccccc1 (stereo unspecified)	24%	4%	-22%	14%	7%	-1%	-0.8%	1%
COCCn1c(N)c(N(Cc2ccccc2)C(=O)CN2C(=O)NC(C)(c3ccccc3)C2=O)c(=O)[nH]c1=O (stereo unspecified)	-7%	8%	17%	7%	.	-8%	.	28%
COc1ccc(C(=O)NCCCOC(=O)c2ccc(OC)cc2)cc1	-3%	-4%	-7%	-13%[46.1 µM]	.	?	.	?
COc1cc(C(=O)NCC(c2ccc3c(c2)OCO3)N2CCN(C)CC2)cc(OC)c1OC (stereo unspecified)	-8%	.	.	.	2%	.	3.8%	-7%[46.1 µM]
COc1ccc(CCNC(=O)CCc2ccccc2)cc1OC	7%	.	-12%	?	.	.	.	-22%
COc1ccccc1N1C(=O)CC(Sc2nccc(C)n2)C1=O (stereo unspecified)	-26%	7%	7%	3%	-5%	2%	8.2%	11%
CC(C)Sc1nc2ccccc2n1CC(N)=O	-4%	-9%	-1%	7%	6%	-1%	1.4%	0%
Cc1onc(-c2c(F)cccc2Cl)c1C(=O)N1CCc2ccccc2C1	-16%	-7%	6%	-6%	3%	2%	4.4%	-11%
CCCC[C@@H]1C[C@H]1[C@@H](NC(=O)c1cccs1)c1ccc(Cl)cc1	-15%	-56%	14%	?	-2%	-37%	-2.6%	3%
COc1ccc2cc(S(=O)(=O)N3CCCCCC3)ccc2c1	-19%	-3%	4%	-12%[46.1 µM]	.	-2%	.	-2%
CCCn1cc(NC(=O)c2cc3n(n2)C(C(F)(F)F)CC(c2ccccc2)N3)cn1 (stereo unspecified)	-3%	15%	-2%	16%	-10%	4%	-2.2%	3%
COc1ccc(C(=O)C(C)OC(=O)c2cccc(S(=O)(=O)Nc3cc(Cl)c(OC)cc3OC)c2)cc1 (stereo unspecified)	19%	?	1%	7.1µM*	?	9%	-1.6%	?
Cc1cc(OCC(O)CN2CCc3ccccc3C2)ccc1Cl (stereo unspecified)	10%	-1%	-27%	?	.	2%	.	24%[46.1 µM]
O=C(C1=C(O)C(=O)N(CCCN2CCOCC2)C1c1ccncc1)c1cc2ccccc2o1 (stereo unspecified)	.	-11%	.	.	-8%	13µM*	-3.0%	.
CC(C)(C)C(=O)Nc1ccccc1C(=O)Nc1cccnc1	3%	6%	0%	3%	0%	2%	1.0%	18%
COc1ccc(O)c(/C=c2/sc3nc4cc(C)c(C)cc4n3c2=O)c1	?	-42%	23%	?	?	-4%	-5.7%	1%
Cn1cc(C(=O)N2CCOCC2)c2ccccc21	7%	.	-11%	?	.	0%	.	18%[46.1 µM]
Cc1ccc(N(CC(=O)NCc2ccc(F)cc2)C(=O)c2csnn2)c(C)c1	-14%	-1%	3%	.	.	0%	.	.

Reprinted at random: three entries already listed.
SMILES	2A StopGo	NS1 function inh	RE007 growth inh	MARV entry inh	Cruzain noTriton	SARS PLpro yeast	Cruzain Triton	Lassa entry inh
COc1ccc(CC(NC(C)=O)C(=O)NC2CCN(C(=O)Nc3ccc(Cl)cc3)CC2)cc1OC (stereo unspecified)	5%	-10%	-14%	2%	9%	-17%	0.7%	21%
COc1ccc2cc(S(=O)(=O)N3CCCCCC3)ccc2c1	-19%	-3%	4%	-12%[46.1 µM]	.	-2%	.	-2%
CC1CCC2(CC1)Nc1ccccc1C(=O)N2c1ccccc1 (stereo unspecified)	24%	4%	-22%	14%	7%	-1%	-0.8%	1%

The results go on.
SMILES	2A StopGo	NS1 function inh	RE007 growth inh	MARV entry inh	Cruzain noTriton	SARS PLpro yeast	Cruzain Triton	Lassa entry inh
Cc1cc(C)c(C(=O)C[n+]2cccc(C(N)=O)c2)c(C)c1	-15%	9%	-12%	-10%	.	0%	.	16%
CS(=O)(=O)c1ccc(C(=O)NC2CCCc3ccccc32)cc1 (stereo unspecified)	-13%	4%	-8%	-3%[46.1 µM]	.	1%	.	?
Cc1ccc(CN(C)C(=O)c2cc(COc3ccc(F)cc3Cl)on2)o1	38%[activator]	-1%	-22%	4%[46.1 µM]	.	-3%	.	8%
O=C(C1=C[C@@H](c2ccc(Br)cc2)C[C@@H](OCc2ccc(CO)cc2)O1)N1CCN(Cc2ccccc2)CC1	?	-5%	-5%	.	.	-2%	.	.
Cc1ccc(-c2csc(NC(=O)Cn3[nH]c(=O)c4ccccc4c3=O)n2)cc1	7%	6%	-7%	-3%[46.1 µM]	.	0%	.	-26%[46.1 µM]
Cc1ccc2[nH]c(CSc3nnc(NC(=O)COc4ccccc4C)s3)cc(=O)c2c1	-28%	.	.	.	-18%	.	0.4%	?
Cc1onc(-c2ccccc2)c1C(=O)NC(=S)NNC(=O)c1ccc(O)cc1	?	?	-21%	?	-3%	1%	5.3%	?
CC1CCCCN1CC(O)COCc1ccccc1 (stereo unspecified)	2%	-3%	9%	-2%	.	1%	.	-2%
O=C(Nc1ccc(N2CCOCC2)c(Cl)c1)c1cccc(-n2cnnc2)c1	-6%	-6%	-6%	?	.	2%	.	7%
Cc1ccc2cc3cc(C(=O)N4CCN(c5cccc(C(F)(F)F)c5)CC4)sc3nc2c1	14%	.	.	-2%[46.1 µM]	4%	.	0.2%	14%[46.1 µM]
COCCNC(=O)CCCn1c(SCC(=O)c2ccc(Br)cc2)nc2c(sc3ccccc32)c1=O	-10%	.	.	4%[46.1 µM]	-9%	.	1.9%	1%[46.1 µM]
COCCN1Cc2cccc(C(=O)Nc3ccc(C)c(F)c3)c2C1=O	-1%	.	.	14%[46.1 µM]	?	.	-7.2%	0%[46.1 µM]
c1ccc(C2=NNC(c3ccco3)=Nc3ccccc32)cc1	-7%	14%	-16%	.	.	1%	.	.
Cc1cc(OCC(=O)Nc2cccc(S(=O)(=O)N3CCCC3)c2)ccc1Cl	0%	.	0%	5µM*	.	1%	.	?
CCOC(=O)c1[nH]c2ccc(Br)cc2c1NC(=O)CCN1CCC(C(=O)OCC)CC1	-23%	-11%	-27%	-26%	7%	-4%	11%	6%
Cc1ccc(NC(=O)NCC2CCN(Cc3cccc(Cl)c3)CC2)cc1Cl	?	-3%	-22%	?	0%	0%	-4.1%	-17%
COc1ccccc1NC(=O)Nn1cnnc1	?	-11%	-11%	-21%	4%	6%	1.6%	-7%
